A1 inh – inhibitors of the anti-apoptotic protein A1, read as caspase activation; caspase activation, % (test concentration not listed); hit rate 0.066% among 330,000; AID 2462; MEF A1-2A-BIM cells, Caspase-Glo 3/7 luminescence, 3 h; percent of clofoctol response, vehicle zero;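 active means over half of replicate activation scores above 10%, or exactly half above 10 with the replicate mean above 10; inconclusive means replicate mean below 10 yet half the replicates above 10; inactive means over half of replicates below 10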;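 further: wells of about 30 µL received 50 nL stock; many hits fall short of the cut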
LANA-H2B inh – blocks KSHV LANA binding to histone H2A/H2B | Q9QR71 | AID 2629 | hit rate 0.6% among 320,000 | cell-free LANA-H2A/H2B peptide, fluorescence polarization | inhibition, % (test concentration not listed); in the data active means inhibition mostly above about 10%, no sharp cut-off; inactive means mostly below about 6.7%;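 further: stock transfer was 7.5 nL into about 10 µL; 0% = median of vehicle wells and 100% = median of positive control wells; one replicate is shown; the record names a cut of 25% in any replicate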
Beta apoptosis – beta cell apoptosis inhibition; protection from apoptosis, % (concentration not given with the values); AID 435005; INS-1E cytokine-induced death, ATP luminescence, 48 h; percent of positive-control rescue, neutral wells zero; hit rate 0.8% among 300,000;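 active means all replicates at 75% or more, or half of them and the mean; inconclusive means half reach 75% but not the mean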;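 further: 0% = cytokine-treated negative control wells and 100% = positive control rescue; higher means more ATP so stronger rescue from cytokine killing; wells of about 40 µL received 100 nL stock; the first replicate is given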
Calb FLC – affects C. albicans growth with fluconazole; C. albicans CaCi-2 (fluconazole-resistant clinical isolate) + fluconazole, Alamar Blue growth, 48 h; growth inhibition, % (concentration not given with the values); hit rate 0.57% among 300,000; AID 1979;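 active means most replicates above 75%; inconclusive means exactly half above 75%; inactive means most below 75%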;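 further: all wells also contain fluconazole at 8 µg/ml as a sub-toxic cotreatment; 0% = median of DMSO wells and 100% = median of geldanamycin control wells; wells of about 8 µL received 7.5 nL stock; the first replicate is given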
T cruzi inh – blocks replication of Trypanosoma cruzi; T. cruzi beta-gal in NIH3T3, luminescence, 90 h; inhibition, % (no concentration beside the values); hit rate 1.4% among 300,000;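 active means mean inhibition across valid replicates above about 55%, limit read from the data; inconclusive means mean below that limit but half or more replicates reach it; inactive means mean below it, under half of replicates reach it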;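 further: signal also drops with host cell toxicity which is not excluded here; 0% = plate median of DMSO wells and 100% = zero luminescence signal; higher percent means less beta-gal luminescence so fewer parasites; stock transfer was 50 nL into about 50 µL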
UCH37 DUB inh – inhibitors of human deubiquitinating enzyme UCH37. purified proteasome/UCH37, Ub-AMC cleavage fluorescence. inhibition, % (concentration not given with the values). hit rate 0.33% among 330,000;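 active means mean of two replicates above 20%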;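 further: 0% = compound-free wells with enzyme and 100% = wells lacking proteasome; stock transfer was 100 nL into about 20 µL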
Target sequence (Q9Y5K5 whole entry, looked up): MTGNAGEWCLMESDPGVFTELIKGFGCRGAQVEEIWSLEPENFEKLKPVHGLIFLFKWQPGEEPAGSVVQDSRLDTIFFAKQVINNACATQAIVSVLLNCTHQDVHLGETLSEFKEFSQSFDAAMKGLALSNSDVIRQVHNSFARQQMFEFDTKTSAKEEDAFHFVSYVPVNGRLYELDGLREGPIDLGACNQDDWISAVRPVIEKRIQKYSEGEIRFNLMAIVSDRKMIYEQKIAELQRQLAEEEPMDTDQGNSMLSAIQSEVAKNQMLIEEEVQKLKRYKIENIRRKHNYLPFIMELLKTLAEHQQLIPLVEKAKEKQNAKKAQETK
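Material: human UCH37 enzyme supplied as purified proteasome complex / Amount: 0.15 nM proteasome as dispensed / Buffer or medium: pH 7.4 Tris-HCl (50 mM) with ovalbumin, ATP-MgCl2, DTT / Times: preincubation 30 min, reaction 25 min, room temperature / Technique: AMC fluorescence from Ub-AMC cleavage, excitation 355 nm, emission 460 nm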
B2AR ag – agonists of human beta-2 adrenergic receptor inducing internalization. P07550. Am2.2-beta2AR cells, FAP receptor internalization, flow cytometry; reference of the scale not given here. response, % (test concentration not listed). hit rate 0.43% among 340,000. AID 504454;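 active means response above a set limit, near 3 SD of response in nonfluorescent compounds, cut at about 42% in these data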;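 further: stock transfer was 100 nL into about 11 µL; a reference agonist was the positive control; negative values mostly stem from fluorescent compounds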
Target sequence (P07550 whole entry, looked up): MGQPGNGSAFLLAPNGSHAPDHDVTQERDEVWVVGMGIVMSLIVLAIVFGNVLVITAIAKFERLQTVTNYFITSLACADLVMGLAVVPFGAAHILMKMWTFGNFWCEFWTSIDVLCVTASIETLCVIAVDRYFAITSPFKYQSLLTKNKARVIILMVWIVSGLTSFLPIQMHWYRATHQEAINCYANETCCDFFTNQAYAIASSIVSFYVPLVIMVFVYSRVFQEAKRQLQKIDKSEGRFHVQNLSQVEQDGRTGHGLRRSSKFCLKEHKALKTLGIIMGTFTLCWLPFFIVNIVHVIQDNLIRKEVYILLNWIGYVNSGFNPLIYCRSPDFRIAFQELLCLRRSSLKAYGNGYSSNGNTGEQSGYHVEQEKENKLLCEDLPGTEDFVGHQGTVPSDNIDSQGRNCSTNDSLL
RanGTP-Imp inh – inhibitors of RanGTP-importin-beta interaction, primary screen, biochemical, FRET, CFP-Ran, YFP-importin-beta, homogeneous; cell-free CFP-Ran/YFP-importin-beta FRET ratio; hit rate 1.1% among 300,000; inhibition, % (concentration not given with the values); AID 2216;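 active means most replicates above 15%; inconclusive means exactly half above 15%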;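 further: 0% = DMSO wells and 100% = Ran loaded with GDP instead of GTP; wells of about 40 µL received 100 nL stock; the first replicate is given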
Numbers without * were called inactive; ? = inconclusive; nt = not tested or not shown.

mol,A1 inh,UCH37 DUB inh,Calb FLC,Beta apoptosis,LANA-H2B inh,RanGTP-Imp inh,T cruzi inh,B2AR ag
CN(C)S(=O)(=O)c1ccc(C(=O)NCc2ccco2)cc1,0.3,1.3,-7,-4,-6.1,-2.0,-13,14
CC1(C)NC(=O)N(CC(=O)N2CCN(S(=O)(=O)c3ccccc3C(F)(F)F)CC2)C1=O,0.5,1.3,nt,-2,-4.2,nt,nt,2
Cc1nc2ccc(NC(=O)Cc3ccc(Br)cc3)cc2s1,0.5,-1.9,29,-12,10,-0.6,12,-3
Cc1cc(C(=O)N(C)C)sc1-c1ccccc1,1.6,2.7,-4,-3,2.5,2.8,-13,-9
CN(CC1CCN(CCc2cccc(C(F)(F)F)c2)CC1)C(=O)c1ccc(F)cc1F,0.9,2.0,0,nt,3.2,-1.3,42,1
CCCCCn1c(=O)c(F)cn(Cc2ccc(OC)c([N+](=O)[O-])c2)c1=O,0.5,5.6,-11,-3,2.9,7.6,2,nt
OCC[C@H]1C[C@H](O)[C@@H](O)[C@@]2(Cc3ccccc3CCO2)O1,-0.4,1.4,nt,0,-0.7,nt,nt,1
O=C(NNS(=O)(=O)c1ccc(F)cc1)c1cccc(O)c1,-0.4,5.3,6,-1,0.5,4.7,2,-2
CC1CCN(C(=O)c2nc[nH]c2C(=O)O[C@H](C)c2ccccc2)CC1,-0.2,0.1,nt,-3,0.3,nt,nt,0
c1ccc(CSCCc2ccncc2)cc1,0.2,nt,2,-5,-7.4,0.2,24,2
CC(=O)Oc1ccc(C(=O)[C@H]2[C@H]3C(=O)N(c4ccc(C)cc4)C(=O)[C@H]3[C@@H]3C=CC=NN32)cc1,-0.1,3.0,-21,0,5.0,-3.0,8,5
COc1ccc2[nH]c(C(=O)N3CCNCC3)cc2c1OC,nt,0.6,-3,nt,nt,-0.8,-5,-5
Cc1ccc(C2C3=C(CC(C)(C)CC3=O)N=C3c4ccccc4C(=O)C32)cc1 (stereo not given),-0.6,0.5,85*,21,-1.2,?,31,-6
COC(=O)c1ccc(NC(=O)Nc2ccc(F)cc2)cc1,-5.5,-3.9,0,8,-0.3,2.1,5,2
CCc1nnc(NS(=O)(=O)c2ccc(NC(=O)c3cccc(Cl)c3)cc2)s1,0.2,3.9,-8,-2,1.2,0.9,8,6
CC(C)C[C@H]1COCCS(=O)(=O)N1Cc1cccc(Cl)c1,0.2,3.0,4,-1,-2.0,0.6,-11,2
O=C(c1ccccc1-n1cccc1)N1N=C(C(F)F)CC1(O)C(F)F (stereo not given),0.2,2.6,0,13,-6.6,-0.1,-11,-7
O=C(c1ccc(F)cc1F)N1CCCC(c2nc(-c3ccc(F)cc3)no2)C1 (stereo not given),0.2,3.8,-11,0,7.3,1.2,3,-4
Fc1cccc(Cl)c1CNc1ccc(N2CCCC2)cc1,-0.1,0.2,7,51,-0.2,-1.0,94*,3
CC(=O)Nc1ccc(S(=O)(=O)N(C2=NCC(C)S2)c2ccccc2)cc1 (stereo not given),0.0,6.2,-13,-5,-6.8,0.3,1,-6
Cc1ccc2c(Cl)cc(Cl)c(OCC(=O)Nc3cccc(S(=O)(=O)N(C)C)c3)c2n1,-0.5,5.4,5,-8,-2.2,?,-5,1
COc1ccc(NS(=O)(=O)c2cc(NC(=O)C3CC3)ccc2N2CCOCC2)cc1,0.0,-1.1,-11,-5,-256,-5.2,-1,1
CCOc1ccc(NC(=O)CN2C(=O)C3CCCN3C2=O)cc1 (stereo not given),-0.9,1.9,-10,-5,1.2,-2.6,-8,7
COc1ccc(NC(=O)NNC(=O)c2ccc(Cl)cc2Cl)cc1OC,-0.4,-1.4,-2,-2,-0.9,1.1,-9,1
COC(=O)C/C=C/[C@@H](C)[C@@H](/C=N/OC[C@H]1O[C@H](c2ccccc2)C=C[C@@H]1Oc1ccc(OC)cc1)OC,-1.8,nt,-2,-2,-6.5,-6.6,9,nt
Oc1cc2c(cc1O)C(c1ccccc1)CNCC2 (stereo not given),0.0,3.2,nt,-4,2.0,-0.1,-12,-12
CN(C)c1ccc(/C=N/NS(=O)(=O)c2ccc(Br)cc2)cc1,1.0,nt,-2,0,3.6,-4.7,0,-9
Cc1cc(C)c2nc(NC(=O)CN3C(=O)NC4(CCCC4)C3=O)sc2c1,0.4,5.6,2,nt,-2.4,2.2,-12,15
CC(C)CN(C(=O)c1ccc(F)cc1F)c1c(N)n(CC(C)C)c(=O)[nH]c1=O,0.0,4.1,-4,-4,0.0,-0.2,1,-4
COC(=O)c1cc(-c2cc(OC)ccc2OC)nc2c1c(=O)n(C)c(=O)n2Cc1ccccc1,-0.4,-149,1,-1,0.8,?,39,1
C[C@@H]1CN(Cc2nc(-c3ccc(Cl)cc3)no2)C[C@H](C)O1,-0.1,3.5,-4,-2,-0.9,-2.7,-4,-1
Cc1cccc(S(=O)(=O)NNC(=O)c2cc(-c3ccc(F)cc3)nc3ccccc23)c1,0.6,-62,9,-2,10,-1.8,-3,10
Cc1ccc(CS(=O)(=O)CCC(=O)NCc2ccccn2)cc1,-0.6,2.0,-2,-2,8.4,6.7,0,4
COc1cc2c(cc1NC(=O)C(C)OC(=O)/C=C/c1ccc(OC(F)F)cc1)oc1ccccc12 (stereo not given),-0.1,3.1,?,1,0.6,-6.5,0,14
Cn1nnnc1-c1cc(Br)ccc1NC(=O)c1ccccc1,0.8,2.4,-4,-4,1.3,-2.8,-5,5
CN(C/C=C/c1ccccc1[N+](=O)[O-])Cc1ccccc1,0.7,0.6,3,-2,-0.6,4.5,31,-2
COC(OC)c1ccnc(-c2ccc(OC(=O)c3ccc(F)cc3)cc2)n1,0.6,1.5,0,2,4.2,?,-8,5
CCn1c(CNC(=O)c2cccc(C)c2)nnc1SCC(=O)Nc1nnc(C)s1,0.2,-2.4,-4,-5,3.4,-0.6,-14,-5
Cc1cc(C)cc(NC(=O)CSc2nc3ccncc3[nH]2)c1,0.4,3.4,4,4,-4.9,?,2,-24
COc1ccc(S(=O)(=O)N2CCC(C(=O)NCC3CC3)CC2)cc1,0.4,4.0,3,4,2.8,-3.1,2,3
CCC(C)(C)NC(=O)c1cc(S(=O)(=O)N2CCCCC2)ccc1N1CCOCC1,-0.7,6.2,8,-1,1.7,6.2,12,-2
Cc1cccc(OCCN2CCOCC2)c1C,-1.8,1.4,4,-21,-7.5,0.8,-6,-1
Cc1ccc(OCC(=O)Nc2cccc(O)c2)cc1C,-6.3,0.6,-2,-1,6.3,-0.1,-10,3
COc1ccc(-n2nc(C(=O)NCC(=O)Nc3ccc(F)cc3)c3ccccc3c2=O)cc1,0.8,-184,20,7,4.9,6.3,0,2
CN1CCc2c(sc(NC(=O)CS(=O)(=O)c3ccccc3)c2C(N)=O)C1,1.8,4.6,-6,nt,-0.7,139*,12,1
Cc1ccn2c(=O)c(NC(=O)c3cccs3)c(C)nc2c1,-1.8,7.3,-8,2,0.2,6.1,-11,5
CCC(C)n1c(SCC(=O)NC(=O)c2cccn2C)nc2ccccc2c1=O (stereo not given),0.5,3.2,-16,-1,-0.1,-2.8,-7,-3
Cc1ccc(C)c(OCCCCn2cnc3ccccc3c2=O)c1,-0.1,4.9,38,-5,1.6,4.7,37,-1
Cc1cc(Cl)c2oc(C(=O)N(C)CCCCN3CCOCC3)c(C)c2c1,0.0,6.9,-10,-3,1.4,0.9,-11,-1
Cc1ccc(S(=O)(=O)NCCC(=O)OCC(=O)N(Cc2ccccc2)C(C)(C)C)cc1C,0.4,3.6,6,1,0.8,nt,-3,4
COc1ccc(CC(=O)Oc2ccc(C(C)(C)C)cc2)cc1S(=O)(=O)N1CCOCC1,0.5,3.5,-5,-11,-5.7,-0.8,-2,5
CCC(=O)N1CCN=C1SCc1c(F)cccc1Cl,0.5,3.6,0,nt,-2.7,-1.0,0,-15
COC(=O)c1sc(N2CCN(c3ccc(Cl)cc3)CC2)nc1N,-1.8,2.2,3,1,4.3,0.7,30,1
Nc1nc2ncc(C(=O)c3cc(Cl)cc(Cl)c3O)cc2s1,1.4,-0.6,-5,2,3.6,?,3,18
CS(=O)(=O)c1cccc(C(=O)Nc2cccc(-c3nc4ccccc4[nH]3)c2)c1,-7.1,4.3,35,12,1.9,5.6,-20,-2
Fc1ccccc1/C=C1\CCCC2=C1Nc1nnnn1C2c1ccccc1F (stereo not given),-0.5,-2.9,21,15,-41,1.5,16,6
Cc1ccc(-n2nc3c(c2NC(=O)c2ccc(OC(C)C)cc2)CS(=O)C3)cc1 (stereo not given),1.2,0.7,1,-6,-4.9,2.2,2,-5
Fc1cccc(CN2CCN(Cc3nc(CCc4ccccc4)no3)CC2)c1,0.1,4.0,-1,7,-0.2,3.1,26,-13
Cc1cccc(C)c1NC(=O)c1sc(N)nc1-c1ccccc1,0.8,2.9,3,-6,-1.2,?,-14,5
COc1ccccc1N1CCN(C(=O)CC2NC3CCCCC3NC2=O)CC1 (stereo not given),-0.7,0.4,-4,0,2.6,-1.0,nt,nt

Further compounds
mol,A1 inh,UCH37 DUB inh,Calb FLC,Beta apoptosis,LANA-H2B inh,RanGTP-Imp inh,T cruzi inh,B2AR ag
CCCNCc1cc(OCC)c(OCC(N)=O)cc1Br,-0.1,2.1,nt,-4,-0.5,3.3,-7,-4
CC1(C)CC(CNCCC(c2ccc(F)cc2)c2ccco2)CCO1 (stereo not given),0.4,5.4,-6,-2,-11,2.5,51,-3
N#CC1=C(N)N(c2ncn[nH]2)C2=C(C(=O)CCC2)C1c1ccc(F)cc1 (stereo not given),0.3,5.4,-1,-8,3.3,-0.4,-11,-5
CCOc1cccc(C2C(C(=O)c3ccc(C)o3)=C(O)C(=O)N2Cc2ccccc2)c1 (stereo not given),nt,5.6,14,nt,nt,-7.0,-12,-4

Compounds as they come; any-hit rate near 4.3%.
